Compound activity: PubChem BioAssay, National Center for Advancing Translational Sciences (NCATS)
Cruzain inh Det: qHTS Assay for Promiscuous and Specific Inhibitors of Cruzain (with detergent); hit rate 0.43% among 200,000; Cruzipain (Trypanosoma cruzi), P25779; purified cruzain, Z-FR-AMC fluorescence, 0.01% Triton; Potency, µM, inactives show max response, negative = inhibition, actives largely listed as inhibitors; active = well fitted curve in the direction sought with a large enough effect; inconclusive = small, poorly fitted or top-dose-only effect, or another doubt; inactive = no such curve, though single readings can be large; an effect the other way counts as inactive or inconclusive;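 also: plate controls were neutral wells for no effect and buffer without enzyme for full effect; nearly all actives have a fitted effect of over 40% in size; top concentration of the series not given in the record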
Target sequence (P25779 123-467 limits assumed): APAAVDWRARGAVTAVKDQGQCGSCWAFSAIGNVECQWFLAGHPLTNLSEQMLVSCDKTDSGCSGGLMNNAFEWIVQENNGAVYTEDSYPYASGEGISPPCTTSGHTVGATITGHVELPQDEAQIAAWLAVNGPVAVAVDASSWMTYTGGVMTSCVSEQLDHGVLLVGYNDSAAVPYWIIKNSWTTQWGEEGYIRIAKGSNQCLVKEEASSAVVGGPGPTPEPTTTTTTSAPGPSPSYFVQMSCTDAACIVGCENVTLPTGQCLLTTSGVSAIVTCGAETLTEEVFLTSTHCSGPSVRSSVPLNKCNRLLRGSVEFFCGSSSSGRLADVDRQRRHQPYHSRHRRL
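Detergent-containing run (0.01% Triton X-100) in acetate buffer pH 5.5 with 5 mM DTT: enzyme at 1.5 nM final, 15 min compound preincubation at room temperature, then 2 uM Z-FR-AMC substrate. Activity taken as 60 s fluorescence increase at 360/450 nm.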
SARS PLP yeast: qHTS of Yeast-based Assay for SARS-CoV PLP; S. cerevisiae expressing SARS-CoV PLpro, growth rescue; control for the full effect not named in the record; Potency, µM (top dose mostly 32.9 µM), inactives show at the top dose activity, positive = growth rescue; hit rate 0.19% among 330,000; also: 0% is about no effect; nearly all actives have a fitted effect of over 55% in size; growth read by luminescence after 48 h
Lassa entry inh: qHTS for Inhibitors of binding or entry into cells for Lassa Virus | Potency, µM (top dose mostly 37.9 µM), for inactives: at the highest dose activity change, negative = inhibition, most hits filed as inhibitors | hit rate 1.2% among 300,000 | Lassa virus pseudotype entry inhibition, cell reporter; control for the full effect not named in the record | AID 540256, 2011; active means well fitted inhibition curve with a large enough effect; inconclusive means small, poorly fitted or top-dose-only effect, or effect the other way; inactive means flat fitted curve, though single readings scatter; tested in HEK293 cells; also: % is scaled to controls: 0 for no effect and ±100 for the full control effect; nearly all actives have a fitted effect of over 50% in size; luciferase read-out
Cruzain inh noDet: qHTS Assay for Promiscuous and Specific Inhibitors of Cruzain (without detergent). Potency, µM, inactives show max response, negative = inhibition, actives largely listed as inhibitors. hit rate 2.3% among 200,000. purified cruzain, Z-FR-AMC fluorescence, no detergent; active = well fitted curve in the direction sought with a large enough effect; inconclusive = small, poorly fitted or top-dose-only effect, or another doubt; inactive = no such curve, though single readings can be large; an effect the other way counts as inactive or inconclusive;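 also: plate controls were enzyme without inhibitor for no effect and buffer without enzyme for full effect; nearly all actives have a fitted effect of over 40% in size; top concentration of the series not given in the record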
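Purified cruzain at 1.5 nM, pre-incubated 15 min with compound at room temperature in 100 mM sodium acetate pH 5.5, 5 mM DTT, 0.00005% Triton X-100. Reaction started with 2 uM Z-FR-AMC; AMC fluorescence increase over 60 s gives rate.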
StopGo reporter: High Throughput Screening for Foot and Mouth Disease Virus Antivirals; hit rate 1.2% among 410,000; human cells with a luciferase reporter of 2A StopGo recoding; control for the full effect not named in the record; AID 1159524, 2015; Potency, µM (highest dose often 57.9 µM), inactives show at the top dose signal change, negative = less light; active = well fitted falling curve with a large enough effect; inconclusive = small, poorly fitted or top-dose-only effect; inactive = no such curve, though single readings can be large or run the other way; tested in HEK293T cells; also: % is scaled to controls: 0 for no effect and ±100 for the full control effect; nearly all actives have a fitted effect of over 45% in size; luciferase light after 4 h
RE007 growth inh: qHTS Assay for Inhibitors of the HIV-1 protein Vpr; S. pombe RE007 Vpr strain, BacTiter-Glo ATP luminescence, 24 h; control for the full effect not named in the record; Potency, µM (doses to about 92.2 µM), inactives show top-dose activity change, negative = less growth; hit rate 0.21% among 360,000; active = well fitted falling curve with a large enough effect; inconclusive = small, poorly fitted or top-dose-only effect; inactive = no such curve, though single readings can be large or run the other way;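 also: % is scaled to controls: 0 for no effect and ±100 for the full control effect; nearly all actives have a fitted effect of over 50% in size; the assay follows cell death caused by Vpr and the record does not say whether a fall means rescue or toxicity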
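Fission yeast RE007 carrying one integrated HIV-1 vpr copy, seeded at OD 0.01 in PMG+AL medium with 23 nL pinned compound. Grown 24 h at 30 degrees; viability read by BacTiter-Glo luminescence after 5 min.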
MARV entry inh: qHTS for inhibitors of binding or entry into cells for Marburg Virus | Marburg virus pseudotyped entry inhibition, cell reporter; control for the full effect not named in the record; about a third of the inactives were read at about 46 µM | Potency, µM (series often up to 37.8 µM), without a hit: top-dose activity change, negative = inhibition, actives largely listed as inhibitors | hit rate 1.8% among 300,000; active = well fitted inhibition curve with a large enough effect; inconclusive = small, poorly fitted or top-dose-only effect, or effect the other way; inactive = flat fitted curve, though single readings scatter; tested in HEK293 cells; about a fifth of its hits are not listed in these tables; also: % is scaled to controls: 0 for no effect and ±100 for the full control effect; luciferase read-out
NS1 function inh: qHTS Assay for Inhibitors of Influenza NS1 Protein Function; S. cerevisiae slowed by influenza A NS1, growth recovery by OD600; Potency, µM (titrated, usually from 46.1 µM), without a hit: at the top dose activity, positive = more growth; hit rate 0.4% among 270,000; also: actives are rising curves; nearly all actives have a fitted effect of over 50% in size
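Read-out: OD600 growth recovery of NS1-expressing budding yeast. Cells grown overnight at 30C in -URA glucose medium, washed, resuspended and diluted 1:100 in 2% galactose assay medium, pH 6.0. Same strain lacking NS1 served as positive control.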
An asterisk follows results filed as active; ? = inconclusive; nt = not tested or not shown; [ ] = dose if it differs, or a comment. Unless noted, calls follow the shape of the dose curve; as a rule, active means well fitted rising curve with a large enough effect; inconclusive means small, poorly fitted or top-dose-only effect; inactive means no such curve, though single readings can be large or run the other way. Potency is read from the fitted curve at half-maximal effect. Random draw from the library. About 4.7% of those tested had a hit in this group.

SMILES | Cruzain inh Det | SARS PLP yeast | Lassa entry inh | Cruzain inh noDet | StopGo reporter | RE007 growth inh | MARV entry inh | NS1 function inh
O=C(CC(=O)Nc1nc(C23CC4CC(CC(C4)C2)C3)cs1)NCCO | nt | -3% | ? | nt | -18% | 10% | ? | 1%
Cc1ccc(C)c(OCCn2cc(C(=O)c3ccco3)c3ccccc32)c1 | -1.9% | nt | ? | ? | ? | nt | 13%[46.1 µM] | nt
O=[N+]([O-])c1cccc(-c2nnc3ccccn23)c1 | nt | -1% | nt | nt | 0% | -8% | nt | -32%
Cc1nc(-c2cc(C#N)c(Sc3cccc(C(F)(F)F)c3)nc2C)cs1 | nt | 0% | nt | nt | -21% | 13% | nt | 3%
O=C(CNCCc1ccc(Cl)cc1)Nc1ccc(C(=O)N2CCCCC2)cc1 | nt | 0% | ? | nt | -16% | 15% | 11µM* | 4%
Brc1ccc2[nH]cc(/C=N/N3CCCCC3)c2c1 | -9.9% | -12% | 11% | -5% | -5% | nt | 5% | 0%
CC(C)CN(C(=O)COC(=O)c1ccccc1NCc1ccco1)c1c(N)n(Cc2ccccc2)c(=O)[nH]c1=O | nt | 3% | ? | nt | -9% | 3% | -12% | nt
CCC(C(=O)NC1CCCC1)N(C(=O)Cn1nnc(-c2ccc(C)o2)n1)c1ccccc1OC (centres undefined) | nt | 2% | 1% | nt | -11% | 8% | ? | 11%
Cc1ccc(-c2nc(N3CCOCC3)sc2C(=O)N2CCOCC2)cc1 | 0.4% | 8% | 5% | 4% | 7% | 10% | 27% | -13%
O=C(NN=C1CCCC1)c1cccc(O)c1 | nt | -1% | nt | nt | 4% | -2% | nt | -4%
CCCC(Oc1ccc(Br)cc1)c1nc2c3cc(OC)c(OC)cc3nc(=S)n2[nH]1 (centres undefined) | nt | -1% | -18% | nt | 11% | 5% | ? | nt
CC(C)OP(=O)(c1ccc(N(C)C)cc1)C(Nc1ccccc1)c1cccnc1 (centres undefined) | -1.9% | 19% | 3% | 12% | -21% | 5% | 7% | -6%
COc1ccc(-c2nc(N3CCOCC3)nc3n[nH]c(N)c23)cc1 | -1.5% | -2% | ? | 6% | ? | -18% | -16% | ?
COc1cc(-c2nnc(SCc3cc(=O)oc4cc(C)ccc34)o2)cc(OC)c1OC | -7.2% | 5% | -12% | ? | 20% | -17% | -34% | 16%
CCOc1ncccc1C(=O)Nc1ccc(F)c(F)c1 | nt | 0% | 14% | nt | -8% | -19% | 3%[46.1 µM] | -9%
CN1C2=NCCN2C(=O)c2ccccc21 | 3.2% | -2% | -6% | -4% | nt | 4% | 10% | 8%
Cn1c(SCc2nnc(-c3ccc(F)cc3)o2)nnc1C1COc2ccccc2O1 (centres undefined) | 7.3% | 26% | 10% | 12% | 15% | 0% | 12% | -11%
NC(=O)c1c(NC(=O)C2CCCO2)sc2c1CCCCC2 (centres undefined) | -29% | -30% | 7% | -19% | 38%[activator] | 6% | ? | 12%
O=C(Nc1nc2n(n1)C(c1ccc(F)cc1)C=C(c1ccccc1)N2)c1cccc([N+](=O)[O-])c1 (centres undefined) | 3.9% | nt | 4%[46.1 µM] | 5% | -25% | nt | 2%[46.1 µM] | nt
O=S(=O)(NCC(c1ccc2c(c1)OCO2)N1CCN(c2ccccc2)CC1)c1ccccc1 (centres undefined) | nt | -2% | ? | nt | 8% | 2% | ? | nt
Cc1ccc2cc3cc(C(=O)NCCC(C)C)oc3nc2c1 | 22% | -1% | ? | -7% | -8% | -13% | -5% | ?
CC(=O)NC(CC(=O)O)c1ccccc1 (centres undefined) | nt | -1% | nt | nt | -11% | 0% | nt | 2%
CCCCc1c(O)nc(SCC(=O)NCCc2ccc(OC)c(OC)c2)[nH]c1=O | 1.0% | 4% | -7% | -3% | -21% | -15% | ? | 14%
COc1ccc(-n2nc(C(=O)Nc3ccc(OC)c(OC)c3)c3c4ccccc4n(C)c3c2=O)cc1 | 0.6% | 14% | ? | 17% | -16% | 17% | -26% | -5%
Cc1c(OCC(=O)NC2CC(C)(C)NC(C)(C)C2)ccc2c1oc(=O)c1ccccc12 | nt | 3% | nt | nt | -12% | -1% | nt | -10%
O=C(CSc1nc2c([nH]c3ccccc32)c(=O)n1-c1ccccc1)N1CCCc2ccccc21 | -0.2% | nt | 0%[46.1 µM] | -9% | 1% | nt | nt | nt
COc1ccc(CNC(=O)C2CCC(=O)N2C(C)C)c(OC)c1 (centres undefined) | nt | 1% | nt | nt | -11% | -11% | nt | 4%
Cc1cccc(-c2nsc(SCC(=O)Nc3cc(C)on3)n2)c1 | 0.5% | 5% | -7% | -15% | 27% | -12% | -18% | -8%
CCCn1c(SCC(=O)Nc2ccccc2Cl)n[nH]c1=O | nt | 1% | nt | nt | -12% | -9% | nt | -3%
CCOC(=O)c1sc(NC(=O)COC(=O)C(CCSC)NC(C)=O)nc1C (centres undefined) | -3.7% | -1% | 12% | 14% | -2% | 13% | 15% | 0%
Cc1ccc(C(=O)OCC(=O)N2CCOCC2)c(C)c1 | nt | 1% | 11% | nt | 25% | 1% | 8%[46.1 µM] | -3%
CCn1c(=O)cc(OCC(=O)Nc2cc(Cl)c(OC)cc2OC)c2ccccc21 | 1.3% | nt | 4%[46.1 µM] | 1% | -25% | nt | ? | nt
COc1ccc(S(=O)(=O)NCCc2csc(-c3ccc(F)cc3)n2)cc1F | -12% | nt | -16%[46.1 µM] | -13% | 0% | nt | nt | nt
C/C(=N\Nc1nc(N)cc(Cl)n1)c1cccc(N)c1 | -5.3% | 2% | 5% | -7% | 10% | 17% | ? | 26%
CCOC(=O)C1C(=O)NC(SCC(=O)Nc2nccs2)=C(C#N)C1c1ccccc1OCC (centres undefined) | -11% | -68% | 8% | 0% | 16% | ? | -23% | -101%
C#CCn1c(=NC(=O)CN2C(=O)CCC2=O)sc2cccc(OC)c21 | nt | 1% | nt | nt | 10% | -9% | nt | -8%
CN1CCN(CCCOc2ccc(-c3ccccc3)cc2)CC1 | nt | -5% | ? | nt | 6% | 4% | ? | -12%
Cc1cc(C)c2c(-n3cccc3)c(C(=O)NNS(=O)(=O)c3ccc(Br)cc3)sc2n1 | -6.0% | -22% | -12% | -7% | 3% | 28% | -14% | -10%
CCOc1ccc(C)cc1S(=O)(=O)N1CCCCC1 | 3.1% | -9% | 25% | 2% | -15% | -4% | -5% | 8%
NS(=O)(=O)c1ccc(Nc2nc(-c3ccc(O)cc3)cs2)cc1 | -4.3% | 1% | -40%[14.3 µM] | -11% | -6% | 3% | 1% | ?
CCOc1ccccc1NC(=O)C1CCCN(S(=O)(=O)c2ccc(OC)c(C)c2)C1 (centres undefined) | 6.9% | 0% | -19% | ? | -24% | -8% | ? | ?
O=C(NNC(=O)C12CC3CC(CC(C3)C1)C2)c1cccc(O)c1 | nt | 7% | 2% | nt | -16% | -1% | 11%[46.1 µM] | 14%
CCc1ccc(OCCNC(=O)c2cc(SC)ccc2Cl)cc1 | -3.1% | -5% | -3% | -3% | -20% | 7% | 1% | -55%
COc1ccccc1OCc1cc(-c2ccccc2)no1 | nt | -1% | -3%[46.1 µM] | nt | 36%[activator] | 1% | ? | nt
Cc1ccc(Sc2ccc(N)cc2C#N)cc1 | nt | nt | -4% | nt | -19% | -13% | 1% | nt
C=CCNc1nc(Cl)nc(Nc2ccc(OC)cc2OC)n1 | nt | 0% | -12%[46.1 µM] | nt | -26% | 20% | ? | 3%
CC1=CC(C)(C)n2c(O)c(N=NC(N)=S)c3c(C)ccc1c32 | ? | -19% | -7% | 20µM* | -9% | -11% | -3% | 15%
CCc1cccc(C)c1NC(=O)Cc1ccsc1 | nt | 5% | -16%[46.1 µM] | nt | -1% | 2% | -18%[46.1 µM] | 0%
COc1ccc(-c2c(C(F)(F)F)nn(C)c2NC(C)=O)cc1 | nt | 2% | -6% | nt | 16% | 1% | 2%[46.1 µM] | 2%
Cc1cccc(NS(=O)(=O)c2cccc([N+](=O)[O-])c2)n1 | nt | 1% | nt | nt | 49%[activator] | -6% | nt | 5%
Cc1ccc2c(N)[nH]nc2n1 | nt | -1% | 12% | nt | -14% | 2% | -3%[46.1 µM] | 16%
Cc1c(Cl)cccc1NC(=O)c1ccc2snnc2c1 | -1.4% | nt | 5%[46.1 µM] | 7% | 6% | nt | ? | nt
CCCn1c2c(c(=N)c3c1CCC3)CCC2 | nt | -1% | -7% | nt | ? | -15% | ? | -1%
CCCCNC(=O)/C(C#N)=C/c1ccc(F)cc1F | nt | -7% | 7% | nt | ? | -4% | ? | nt
CCCCCn1c(Br)nc2c1c(=O)n(CC(N)=O)c(=O)n2C | -0.3% | 8% | 0% | 4% | -26% | 2% | -5% | 2%
Cc1ccc(OCC(=O)NCC2(N3CCN(C)CC3)CCCCC2)cc1 | 0.0% | nt | 1%[46.1 µM] | 15% | -4% | nt | ? | nt
CCc1ccc(-n2c(C)cc(/C=N/NC(=O)c3ccncc3)c2C)cc1 | nt | -1% | nt | nt | -16% | -6% | nt | 1%
COc1ccc(-c2noc(CN(C(=O)COc3cc(C)c(Br)c(C)c3)C(C)C)n2)cc1 | 1.3% | nt | -22%[46.1 µM] | 30% | -20% | nt | ? | nt
O=C(CCNS(=O)(=O)c1ccc(Br)s1)NCc1ccc2c(c1)OCO2 | nt | 1% | -19% | nt | 3% | 9% | 4% | nt
C/C(=N/NC(=O)CNc1ccc(C)cc1)c1ccc(Cl)cc1 | -6.9% | -6% | -34% | ? | nt | 6% | -7% | -6%
Cc1ccc(N=C2N=C(N)c3ccccc32)c(C)c1 | 1.6% | -4% | ? | 4% | -22% | -27% | -19% | -11%
Cc1cc2nc3ccc(=[N+](C)C)cc-3sc2cc1N | nt | -3% | nt | nt | -8% | ? | nt | 14%
